UCH37 DUB inh: inhibitors of human UCH37 deubiquitinase, primary screen, biochemical, Ub-AMC cleavage, fluorescence; purified proteasome/UCH37; inhibition, % (test concentration not listed); actives 0.33% (n = 330,000); AID 588478, 2011;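 active = mean of two replicates above 20%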;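 also: 0% = compound-free wells with enzyme and 100% = wells lacking proteasome; stock transfer was 100 nL into about 20 µL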
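Material: Human UCH37 enzyme supplied as purified proteasome complex | Schedule: 30 min preincubation with enzyme, 25 min cleavage at room temperature | Detection: AMC fluorescence 355/460 nm | Measure: % inhibition of Ub-AMC cleavage fluorescence | Controls: Wells without proteasome as full block, compound-free enzyme plus substrate as uninhibited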
Bfl-1 A1 inh: caspase 3/7 activation in MEF A1-2A-BIM cells, primary screen, A1 inhibitor project, cell-based, luminescence, HTS; Caspase-Glo 3/7 luminescence, 3 h; percent of clofoctol response, vehicle zero; caspase activation, % (concentration not given with the values); actives 0.066% (n = 330,000);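 active = over half of replicate activation scores above 10%, or exactly half above 10 with the replicate mean above 10; inconclusive = replicate mean below 10 yet half the replicates above 10; inactive = over half of replicates below 10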;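 also: wells of about 30 µL received 50 nL stock; many hits fall short of the cut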
B2AR ag: beta2AR agonists driving receptor internalization, primary screen, cell-based, FAP fluorogen, flow cytometry; Beta-2 adrenergic receptor (Homo sapiens), P07550; Am2.2-beta2AR cells; reference of the scale not given here; response, % (concentration not given with the values); actives 0.43% (n = 340,000);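 active = response above a set limit, near 3 SD of response in nonfluorescent compounds, cut at about 42% in these data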;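 also: stock transfer was 100 nL into about 11 µL; a reference agonist was the positive control; negative values mostly stem from fluorescent compounds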
Target sequence (P07550 whole entry, looked up): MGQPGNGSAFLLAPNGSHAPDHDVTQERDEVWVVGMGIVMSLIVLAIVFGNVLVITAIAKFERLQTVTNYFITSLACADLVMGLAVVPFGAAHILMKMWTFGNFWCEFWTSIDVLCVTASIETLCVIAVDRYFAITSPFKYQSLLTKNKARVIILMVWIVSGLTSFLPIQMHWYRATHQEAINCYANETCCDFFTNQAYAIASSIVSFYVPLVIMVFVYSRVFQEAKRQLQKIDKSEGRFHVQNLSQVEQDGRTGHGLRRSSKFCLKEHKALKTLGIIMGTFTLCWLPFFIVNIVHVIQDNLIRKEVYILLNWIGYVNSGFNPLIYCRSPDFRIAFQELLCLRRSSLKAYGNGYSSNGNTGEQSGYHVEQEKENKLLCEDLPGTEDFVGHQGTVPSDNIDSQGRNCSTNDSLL
LANA-H2B inh: blockers of LANA interaction with H2A/H2B – biochemical, FP readout, HTS, primary screen; Protein LANA1 (Human herpesvirus 8 type P (isolate GK18)), Q9QR71; inhibition, % (no concentration beside the values); AID 2629, 2010; cell-free LANA-H2A/H2B peptide, fluorescence polarization; actives 0.6% (n = 320,000); in the data active = inhibition mostly above about 10%, no sharp cut-off; inactive = mostly below about 6.7%;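 also: stock transfer was 7.5 nL into about 10 µL; 0% = median of vehicle wells and 100% = median of positive control wells; one replicate is shown; the record names a cut of 25% in any replicate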
HNF4A DNA FP: change in binding of human HNF4A to DNA, primary screen, biochemical, fluorescence polarization, FITC-DNA | AID 1224865, 2016 | 1 h | activity change, % at 10 µM | actives 0.3% (n = 360,000) | Hepatocyte nuclear factor 4-alpha (Homo sapiens), P41235; in the data active = activity change above about 30%, passing the limit was not always enough;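 also: controls were the assay level and a saturating level of protein; the project sought stronger binding though the title names inhibitors; some compounds called inactive have numbers as strong as hits; positive values seem to mean higher polarization but the record does not say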
Target sequence (P41235 whole entry, looked up): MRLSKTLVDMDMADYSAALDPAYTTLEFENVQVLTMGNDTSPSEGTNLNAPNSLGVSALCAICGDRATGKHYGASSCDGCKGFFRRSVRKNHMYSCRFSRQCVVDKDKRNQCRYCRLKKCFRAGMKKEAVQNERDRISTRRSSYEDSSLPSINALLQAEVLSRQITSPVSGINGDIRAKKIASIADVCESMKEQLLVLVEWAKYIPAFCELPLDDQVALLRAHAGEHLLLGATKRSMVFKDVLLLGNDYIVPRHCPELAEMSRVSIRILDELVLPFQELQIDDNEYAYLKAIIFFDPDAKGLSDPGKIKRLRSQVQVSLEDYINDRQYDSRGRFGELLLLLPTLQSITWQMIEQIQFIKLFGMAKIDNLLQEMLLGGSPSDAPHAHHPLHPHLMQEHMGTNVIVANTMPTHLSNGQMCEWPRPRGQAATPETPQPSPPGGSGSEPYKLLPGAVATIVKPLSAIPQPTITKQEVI
Ecoli growth: E. coli growth inhibition, primary screen, OD600. Escherichia coli growth, 23 h; stronger effect = lower value. OD600 absorbance (test concentration not listed). actives 0.21% (n = 330,000). AID 1053175, 2014;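 active = OD600 absorbance below the run mean of sample wells minus 3.6 SD, in any replicate, cut at about 0.56 in these data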;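 also: stock transfer was 300 nL into about 60 µL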
Vif A3G: inhibitors of Vif binding to APOBEC3G peptide, primary screen, biochemical, TR-FRET, GST-Vif 1-94, biotin-A3G peptide, dose response retest (AID 1117319); actives 0.57% (n = 260,000); TR-FRET GST-Vif / biotin-A3G peptide binding; higher % means a stronger effect; test concentration not given here; strong numbers were not always called active; one-dose inhibition, %; IC50 in µM for titrated hits;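 active = above the screen mean plus three standard deviations and confirmed in dose response; inconclusive = results disagree or hit not tested in dose response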;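 also: Vif residues 1-94 fused to GST binding biotinylated APOBEC3G peptide 110-148; 0% = full assay without inhibitor and 100% = GST in place of GST-Vif; retest series ran down from 100 µM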
Starred values were filed as active, the others as inactive; i = inactive; ? = inconclusive; nt = no result given. Outcome played no part in choosing rows. Share with any hit: about 2.1%.

SMILES	UCH37 DUB inh	Bfl-1 A1 inh	B2AR ag	LANA-H2B inh	HNF4A DNA FP	Ecoli growth	Vif A3G
CCn1cc(C2Nc3ccccc3C(=O)N2O)c(C)n1 (stereo not given)	-0.4	0.5	-3	0.4	-0.2	0.68	9%
Cc1ccc2c(c1)N(CCC(=O)NCCCN1CCCC1)C(=O)C(C)O2 (stereo not given)	1.3	-0.2	0	-4.5	1.0	0.62	nt
CCO[C@@H]1OC(C(=O)O)=C[C@H](C)[C@H]1CCCO	3.7	-0.4	-1	-0.3	-0.2	nt	-5%
C=CCN(Cc1cccc(OC)c1OC)S(=O)(=O)N(C)C	4.0	0.1	1	-0.9	0.7	0.7	1%
CS(=O)(=O)c1ccc(Cl)c(NC(=O)CNC(=O)c2ccc3c(c2)OCO3)c1	4.9	0.1	-8	-0.2	-4.4	0.68	2%
COc1ccc(CN2C(=O)c3oc4ccccc4c(=O)c3C2c2ccc(O)c(OC)c2)cc1 (stereo not given)	5.1	nt	3	nt	-1.4	0.7	-2%
O=C(COC(=O)C1CC2C=CC1C2)NCc1ccc(F)cc1 (stereo not given)	0.6	-0.3	-5	-4.0	-4.1	0.71	8%
CCOC(=O)CSc1ncc(-c2cccc(Cl)c2)cn1	0.6	0.4	1	-2.2	-0.1	0.64	0%
Cc1nnc(Sc2nc3c(c(=O)n(C)c(=O)n3C)n2Cc2ccc(Cl)cc2)s1	2.5	1.8	-11	0.0	-6.7	0.65	-9%
CCN(CC)c1ccc(/C=N/NC(=O)CNC(=O)c2ccccn2)cc1	nt	0.3	19	-1.3	8.6	nt	4%
CCCCC(=O)N=c1sc2cc(S(C)(=O)=O)ccc2n1C	2.4	-0.2	-5	0.5	1.9	0.68	-8%
COc1ccc(C(=O)NCCS(=O)(=O)N2CCC3(CC2)OCCO3)cc1	nt	1.9	7	-3.1	0.5	nt	nt
CCn1c(SCc2nc(-c3ccc(Cl)cc3)no2)nnc1-c1ccco1	2.0	0.4	-14	0.7	-1.6	0.68	2%
COc1ccc([N+](=O)[O-])cc1NC(=O)c1ccccc1N(C)S(C)(=O)=O	4.6	0.7	9	3.1	-3.5	0.67	-20%
O=C(OCC(=O)N1CCCCC1)c1cc(S(=O)(=O)N2CCOCC2)c(Cl)cc1Cl	2.9	1.5	13	-6.5	-3.3	0.71	-14%
Cc1ccc(NC(=O)CSc2nnc(-c3cnccn3)n2Cc2ccco2)cc1	-0.4	1.0	4	-1.4	-0.6	0.7	21%
CCSc1nnc(NC(=O)c2ccc3nc[nH]c3c2)s1	2.2	-0.9	-4	4.0	-3.8	0.64	5%
C/C=C(/C)C(=O)OC1Cc2c(ccc3ccc(=O)oc23)OC1(C)C (stereo not given)	-22	-0.4	-10	4.0	2.7	0.65	nt
O=C(NCCn1cccn1)C1CCC(=O)N(CCc2cccc(F)c2)C1 (stereo not given)	-0.9	0.0	1	-4.1	-3.8	0.67	nt
COc1ccnc(CS(=O)c2nc3cc(C(O)(F)F)ccc3[nH]2)c1OC (stereo not given)	5.7	-0.4	6	-3.3	-4.3	0.66	-10%
CN(C(=O)COC(=O)Cn1cnc2ccccc21)C1CCCCC1	1.7	-0.3	4	-1.6	-0.4	0.69	-13%
O=C(NC1CCCCC1)C(=S)NCc1ccccc1	1.2	-0.4	-5	1.5	2.4	0.69	0%
N#Cc1cc2c(nc1SCC(O)CS(=O)(=O)Cc1ccccc1)CCCC2 (stereo not given)	0.6	0.0	-12	-3.4	4.4	0.71	15%
CCOC(=O)C1(CCc2ccccc2)CCN(C(=O)c2cnc(C)cn2)CC1	-0.2	0.1	25	6.3	6.0	0.69	-3%

Overlap with the part before: 2 entries, then new ones.
SMILES	UCH37 DUB inh	Bfl-1 A1 inh	B2AR ag	LANA-H2B inh	HNF4A DNA FP	Ecoli growth	Vif A3G
N#Cc1cc2c(nc1SCC(O)CS(=O)(=O)Cc1ccccc1)CCCC2 (stereo not given)	0.6	0.0	-12	-3.4	4.4	0.71	15%
CCOC(=O)C1(CCc2ccccc2)CCN(C(=O)c2cnc(C)cn2)CC1	-0.2	0.1	25	6.3	6.0	0.69	-3%
COC(=O)c1c(O)cc(C(C)(C)C)n(-c2ccccc2)c1=O	5.7	1.3	7	-2.6	0.7	0.63	-3%
CCCc1cc(N2CCOCC2)n2nc(C)c(-c3ccccc3)c2n1	-46	-0.3	1	-2.2	-2.9	0.65	nt
NC(=O)N/N=C/CCc1ccccc1	nt	0.5	-7	1.8	-6.2	nt	-3%
N#Cc1ccc2c(c1)nc1ccccn12	i	-0.2	-5	4.0	6.3	0.64	17%
COc1ccc(-n2nnnc2-c2cnc(N3CCCC3)nc2C(F)(F)F)cc1	0.1	0.9	-7	-3.4	-1.2	0.67	3%
COC(C(=O)Nc1ccc(C(N)=O)cc1)c1ccccc1 (stereo not given)	1.7	-0.6	-7	-1.1	4.6	0.67	8%
CC(NC(=O)NC1CCCCC1)C(c1cccs1)N1CCOCC1 (stereo not given)	2.3	0.1	-9	7.9	4.4	0.78	3%
O=C(Cn1nnc(-c2cccs2)n1)NCc1cccs1	3.3	0.8	-5	0.7	-2.0	0.7	2%
CNC(=S)Nc1ccc(Cc2ccncc2)cc1	4.3	0.7	-6	2.8	-1.8	0.69	21%
CC(=O)Nc1ccc(S(=O)(=O)NC(CC(=O)O)c2ccc(OC(C)C)cc2)cc1 (stereo not given)	4.7	0.2	-1	3.4	2.2	0.71	?
Cc1ccc(CN(C(=O)c2csnn2)C(C(=O)NC2CCCC2)c2ccc(C)o2)cc1 (stereo not given)	2.1	-0.6	-7	1.9	1.5	0.72	-2%
COc1ccc(-n2nc(C(=O)NCC(=O)Nc3cc(OC)c(OC)c(OC)c3)c3ccccc3c2=O)cc1OC	-8.3	-2.9	18	1.9	12	0.69	nt

Brought forward from above: two compounds, then new ones.
SMILES	UCH37 DUB inh	Bfl-1 A1 inh	B2AR ag	LANA-H2B inh	HNF4A DNA FP	Ecoli growth	Vif A3G
Cc1ccc(CN(C(=O)c2csnn2)C(C(=O)NC2CCCC2)c2ccc(C)o2)cc1 (stereo not given)	2.1	-0.6	-7	1.9	1.5	0.72	-2%
COc1ccc(-n2nc(C(=O)NCC(=O)Nc3cc(OC)c(OC)c(OC)c3)c3ccccc3c2=O)cc1OC	-8.3	-2.9	18	1.9	12	0.69	nt
O=C(Cn1cc([N+](=O)[O-])ccc1=O)N1CCc2ccccc21	5.5	-1.4	28	-0.1	1.5	0.66	6%
CCCCc1cc(=O)oc2c(CN3CCN(C)CC3)c(O)ccc12	i	3.0	-2	-4.5	2.0	0.67	-8%
COc1ccc(Nc2nc(N)nc(CSCCO)n2)cc1	-3.0	-1.0	13	-0.5	-3.0	0.73	0%
CCOc1ccc(N=Cc2c(O)cc(C)oc2=O)cc1	8.8	0.6	3	-4.2	-4.1	0.69	7%
CCCCC(=O)NC(=S)Nc1cc([N+](=O)[O-])ccc1OC	-1.3	-0.9	-5	4.0	0.2	0.71	-1%
CC(NC(=O)c1ccc(C(C)(C)C)cc1)C(c1cccs1)N1CCOCC1 (stereo not given)	0.5	0.3	4	-2.4	-2.5	0.68	nt
CCOc1ccc(/C=C2\CCCc3c2nc2ccccc2c3C(=O)O)cc1OC	nt	0.5	6	121*	-102	nt	nt
CCn1c(SCC(=O)NCc2ccccc2)nc2c(c1=O)SC(C)C2 (stereo not given)	8.0	-0.1	-3	-1.0	-0.9	0.74	0%
COc1cc(C(C)=O)ccc1OCc1nnc(-c2ccccc2Br)o1	-0.1	0.3	-10	2.0	3.8	0.69	nt
CSCC(=O)N1CCC(CCC(=O)NC2CC2)CC1	5.1	-0.1	-2	0.8	3.9	0.68	nt
COc1ccc(OC)c(C(=O)Nc2ccc3[nH]ccc3c2)c1	6.6	-3.4	-1	-0.8	1.9	0.69	nt
CC(C)Oc1ccc(CNC(=O)Cn2c(=O)c3cccn3c3cccnc32)cc1	-4.4	0.7	-14	-4.4	1.0	0.67	nt
Cc1cc(C(F)(F)F)c2c(C)nn(-c3ccccc3)c2n1	-60	0.6	-8	5.8	1.0	0.66	nt
CC1=C(C(=O)OC2CCCCC2)C(c2cccc([N+](=O)[O-])c2)NC(=O)N1 (stereo not given)	2.2	?	-11	-2.6	-1.6	0.68	1%
CCS(=O)(=O)c1ccc2c(c1)N(S(=O)(=O)c1ccccc1)CC(C(=O)O)O2 (stereo not given)	0.9	1.0	2	4.5	-1.8	0.7	?
COCc1cccc(N2C(=O)CC(C3C=C(C)C4C(=O)N(c5cccc(COC)c5)C(=O)C4C3)C2=O)c1 (stereo not given)	2.5	-0.2	19	3.2	0.0	0.65	nt
Oc1ccccc1CNc1cnc2ccccc2c1	-140	-2.8	-1	20*	-0.4	0.63	?
c1ccc2c(CCN3CCNC[C@H]3Cc3cccc4ccccc34)cccc2c1	-0.9	0.1	14	-1.0	8.7	nt	nt
Cc1ccc(C)c(NC(=O)C2CCN(C(=O)c3cccs3)CC2)c1	-2.1	-0.4	-1	-0.6	0.2	0.72	nt
Nc1ccn(CC(=O)NCc2ccccn2)c(=O)n1	4.9	0.0	-2	1.4	-1.3	0.7	nt
COc1cc(C2=NOC(C(=O)NCc3cccs3)C2)cc(OC)c1OC (stereo not given)	1.4	-0.1	7	6.7	1.2	0.71	?
C/C(=N\NC(=O)c1ccc(Cn2cc([N+](=O)[O-])cn2)o1)c1cccc(NC(=O)c2cccnc2)c1	nt	0.7	-5	-1.9	0.2	nt	21%
NS(=O)(=O)c1ccc(S(=O)(=O)NCCc2ccccc2)cc1	3.4	-0.5	8	3.1	2.8	0.73	-6%
CCOc1ccc(-n2nnc3c(=O)n(CC(=O)c4ccccc4)cnc32)cc1	-0.2	0.4	3	-2.5	-4.2	0.73	nt
Cc1csc(=O)n1CCC(=O)N(C)Cc1c(F)cccc1Cl	4.8	-1.2	-3	-5.0	-3.2	0.68	-4%
C/C(=N\NC(=O)Cn1nc(C)cc1C)c1ccc([N+](=O)[O-])cc1	nt	0.0	1	1.5	2.9	nt	14%
COc1cc(-c2cc(-c3ccc(O)cc3)nc(N)c2C#N)ccc1O	-171	-0.9	12	-1.6	1.0	0.67	-7%
CC(=O)Oc1ccc(C(=O)Nc2ccc3c(c2)C(=O)N(CCC(=O)O)C3=O)cc1	-412	?	-4	-2.1	-3.9	0.68	2%
O=[N+]([O-])c1cc(S(=O)(=O)NCCN2CCOCC2)ccc1Cl	1.6	0.5	-3	4.9	3.1	0.67	nt
COc1cc(/C=C/C(=O)N2CCOCC2)ccc1OCc1ccccc1	-16	-1.5	3	6.0	4.8	0.66	-11%
O=C1C2C3C=CC(C3)C2C(=O)N1CNc1ccc(O)cc1 (stereo not given)	nt	-0.6	nt	4.8	nt	nt	2.8µM*
Cc1cc(OC(=O)c2cc(F)c(F)cc2Cl)nc(C)n1	5.6	1.9	9	-0.5	-1.2	0.73	4%
CC(=O)c1cccc(N(C(=O)c2ccco2)C(C(=O)NC2CCCC2)c2cccs2)c1 (stereo not given)	1.7	0.3	3	3.8	1.1	0.65	nt
COc1cc(/C=N/NS(=O)(=O)c2ccccc2)ccc1OS(=O)(=O)c1ccc(C)cc1	nt	-0.7	4	3.5	1.7	nt	0%
COc1cc(-c2nc3cnccn3c2Nc2ccccc2)ccc1O	-65	-4.7	6	-0.8	2.7	0.75	1%
CC(Oc1ccc(Cl)cc1Cl)C(=O)NNC(=O)[C@@H]1CCCC[C@@H]1C(=O)O (stereo not given in full)	5.2	-0.1	6	-5.1	1.9	0.73	-12%

Screening data from PubChem BioAssay.
